Compound activity: PubChem, National Center for Advancing Translational Sciences (NCATS)
CtBP-E1A blk – CtBP/E1A binding inhibition; activity change, % (no concentration beside the values); AlphaScreen GST-E1A/His-CtBP binding, 1536-well; active compounds read low; control for the full effect not named in the record; 340,000 compounds, 0.49% hits; AID 651724; in the data active means activity change below about -65%; inconclusive means about -30% to -65%; inactive means above about -30%; also: % is scaled to controls: 0 for no effect and ±100 for the full control effect
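GST-E1A and His-tagged CtBP (125 nM each as 5X stock) were preincubated with pin-transferred compound for 2 h at 37 °C in the dark, then glutathione donor and nickel acceptor beads were added for 1 h before AlphaScreen reading.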
gsp antagonist – gsp mutant antagonism; gsp-mutant cells, cAMP HTRF, 30 min; control for the full effect not named in the record; Potency, µM (titrated, usually from 76.9 µM), for inactives: top-dose activity change, negative = inhibition, usual class: inhibitors; 340,000 compounds, 0.4% hits; active = falling curve of any shape with a large fitted effect; inconclusive = falling curve, mostly with a smaller effect; inactive = flat or rising curve; cell line not stated here;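 also: intracellular cAMP measured with PDE inhibitor Ro 20-1724 present during compound exposure; potency is read from the fitted curve at half-maximal effect; % is scaled to controls: 0 for no effect and ±100 for the full control effect; nearly all actives have a fitted effect of over 65% in size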
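Measurement of cellular cAMP by homogeneous time-resolved fluorescence following a 30 min compound exposure at 37C. The PDE inhibitor […] was present throughout; the assay buffer was DPBS with 0.05% BSA and 0.005% Tween 20.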
D2 agonist – agonists of human D2 dopamine receptor (beta-arrestin). DiscoveRx PathHunter D2 beta-arrestin, luminescence, 90 min; 100% = 57 uM dopamine signal. 360,000 compounds, 0.084% hits. P14416. AID 624465. activation, % (test concentration not listed); in the data active = activation above about 40%; inconclusive = about 15% to 40%; inactive = below about 15%; also: compound concentration not given in the record; the text of the record calls up to 30% inactive
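Agonist mode: compounds alone added to overnight-plated D2 PathHunter cells for 90 min at 37 C, with 57 uM final dopamine (EC100) defining full response. Beta-arrestin recruitment detected by chemiluminescent reagent, read after 1 h at ambient temperature.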
Six1-Eya2 inh – blocks human Six1 binding to Eya2 | activity change, % (no concentration beside the values) | AlphaScreen GST-Six1/His-Eya2 binding, biochemical; active compounds read low; control for the full effect not named in the record | 360,000 compounds, 0.56% hits; in the data active = activity change below about -65%; inconclusive = about -30% to -65%; inactive = above about -30%; also: % is scaled to controls: 0 for no effect and ±100 for the full control effect
Target sequence (O00167 whole entry, looked up): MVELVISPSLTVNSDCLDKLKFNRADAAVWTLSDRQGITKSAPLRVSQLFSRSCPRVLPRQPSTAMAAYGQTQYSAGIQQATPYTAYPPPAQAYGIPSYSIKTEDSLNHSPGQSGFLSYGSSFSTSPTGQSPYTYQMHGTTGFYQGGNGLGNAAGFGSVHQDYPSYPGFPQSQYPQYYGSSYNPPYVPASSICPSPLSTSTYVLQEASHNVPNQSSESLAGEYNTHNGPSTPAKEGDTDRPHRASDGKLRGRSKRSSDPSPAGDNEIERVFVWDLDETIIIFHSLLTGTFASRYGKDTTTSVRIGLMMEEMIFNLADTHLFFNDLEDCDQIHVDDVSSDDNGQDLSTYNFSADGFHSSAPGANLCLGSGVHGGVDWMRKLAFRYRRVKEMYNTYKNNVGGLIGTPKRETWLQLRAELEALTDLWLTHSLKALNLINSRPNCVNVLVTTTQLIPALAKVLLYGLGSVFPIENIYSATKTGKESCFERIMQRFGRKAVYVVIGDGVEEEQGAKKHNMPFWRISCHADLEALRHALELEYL
Target sequence (Q15475 whole entry, looked up): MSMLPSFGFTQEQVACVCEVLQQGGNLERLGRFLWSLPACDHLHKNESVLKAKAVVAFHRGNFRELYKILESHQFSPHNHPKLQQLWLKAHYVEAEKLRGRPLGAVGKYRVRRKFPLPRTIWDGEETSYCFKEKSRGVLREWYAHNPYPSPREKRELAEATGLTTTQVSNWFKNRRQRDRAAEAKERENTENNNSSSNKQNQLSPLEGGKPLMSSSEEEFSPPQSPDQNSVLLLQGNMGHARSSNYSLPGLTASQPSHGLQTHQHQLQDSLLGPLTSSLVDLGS
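Six1/Eya2 binding was read as AlphaScreen signal after compounds were pinned into GST-Six1 plus His-tagged Eya2 (5X stock 250/500 nM) in pH 8.0 Tris/NaCl/TCEP buffer, beads added, then incubated 1 h, 37 C, dark.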
gsp agonist – agonists of gsp mutant (McCune-Albright syndrome). gsp mutant cells, cAMP HTRF, 30 min; control for the full effect not named in the record. Potency, µM (highest dose often 76.9 µM), inactives show at the top dose activation (cAMP increase), hits mostly activators. 340,000 compounds, 0.13% hits. AID 624287; active = well fitted activation curve with a large enough effect; inconclusive = small, poorly fitted or top-dose-only effect, or another doubt; inactive = no such curve, though single readings can be large or run the other way; cell line not stated here;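 also: phosphodiesterase inhibitor Ro 20-1724 added with compounds to block cAMP breakdown; potency is read from the fitted curve at half-maximal effect; nearly all actives have a fitted effect of over 60% in size; about a fifth of the inactives were tested at one dose only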
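Cells stably selected in G418 were plated at 2000/well, grown 16-24 hr, then given compounds in DMSO with the PDE inhibitor […] (300 uM solution added) for 30 min at 37C; cAMP was read by HTRF.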
D2 PAM – human D2 receptor positive allosteric modulation; P14416; DiscoveRx D2 beta-arrestin cells, luminescence, 90 min; 100% = 57 uM dopamine signal; potentiation, % (concentration not given with the values); 360,000 compounds, 0.23% hits; active = potentiation of 50% or more; inconclusive = 30% to 50%; inactive = 30% or less;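 also: tested on top of an EC20 dose of dopamine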
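PathHunter D2 cells, attached overnight at 37 deg C, received compound in DMSO plus dopamine at EC20 (50 nM final) for 90 min at 37 deg C. Beta-arrestin recruitment was read as luminescence after 1 h with detection reagent at ambient temperature.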
Numbers without * were called inactive; [ ] = another dose, or the depositor's remark.

Screening Cc1nn(-c2ccccn2)c2c1C(=O)CC(C)(C)C2Br (stereo not drawn) returned CtBP-E1A blk 1, gsp antagonist -7%, D2 agonist 3.2, Six1-Eya2 inh -1, gsp agonist inconclusive and D2 PAM 11.
Screening CCOC(=O)C1CCCN(c2cc(C)nc3cc(-c4ccc(Cl)cc4)nn23)C1 (stereo not drawn) returned CtBP-E1A blk -3, gsp antagonist -27%, D2 agonist 1.9, Six1-Eya2 inh -6, gsp agonist -6% and D2 PAM 13.
CCN(CC)c1ccc(S(=O)(=O)N2CCOCC2)cc1NC(=O)COC(=O)/C=C/c1ccc(C)o1 was read as CtBP-E1A blk 0, gsp antagonist -26%, D2 agonist -0.5, Six1-Eya2 inh -15, gsp agonist 0% and D2 PAM 12.
Screening NC(=O)N/C=C1\CCCOC1=O returned CtBP-E1A blk 1, D2 agonist -3.3, Six1-Eya2 inh 8, gsp agonist -11% and D2 PAM 3.
For COc1ccc(N(CC(=O)NCc2cccs2)S(=O)(=O)c2ccc(C(C)=O)cc2)cc1 the results were CtBP-E1A blk -24, D2 agonist -0.1, Six1-Eya2 inh 4, gsp agonist inconclusive and D2 PAM -14.
`C[C@@H]1CN([C@@H](C)CO)C(=O)Cc2cc(NC(=O)Nc3ccc4c(c3)OCO4)ccc2O[C@@H]1CN(C)C(=O)NC1CCCCC1` gave CtBP-E1A blk -12, gsp antagonist 7%, D2 agonist 0.3, Six1-Eya2 inh inconclusive and D2 PAM -10.
For Cc1ccc(C(=O)NN=C2CCCC2)cc1C the results were CtBP-E1A blk 4, gsp antagonist 7%, D2 agonist 0.9, Six1-Eya2 inh 4, gsp agonist 15% and D2 PAM -2.
`Cc1ccc(NC(=O)c2sc3nc(N)c(C#N)cc3c2N)cc1` gave CtBP-E1A blk inconclusive, gsp antagonist inconclusive, D2 agonist 1.4, Six1-Eya2 inh -26, gsp agonist 16%[15.4 µM] and D2 PAM -2.
Cc1cc(C)cc(NC(=S)NC(=O)CCN2C(=O)c3ccccc3C2=O)c1 was read as CtBP-E1A blk 2, gsp antagonist 4%, D2 agonist -1.6, Six1-Eya2 inh 20, gsp agonist 6% and D2 PAM -26.
`N/C(=N\OC(=O)c1ccc(Br)o1)c1cccnc1` gave CtBP-E1A blk 9, gsp antagonist 14%, D2 agonist 8.1, Six1-Eya2 inh 16, gsp agonist 10%[15.4 µM] and D2 PAM inconclusive.
Cc1cc(C)cc(Nc2nc3ccc(C)cc3n3cnnc23)c1 was read as CtBP-E1A blk -13, gsp antagonist 5%, D2 agonist -1.6, Six1-Eya2 inh 4, gsp agonist -16%[15.4 µM] and D2 PAM -2.
Cc1ccc(NC(=O)CN(C)S(=O)(=O)c2cccc3cccnc23)cc1C was read as CtBP-E1A blk -18, gsp antagonist -26%, D2 agonist 0.1, Six1-Eya2 inh -10, gsp agonist -17% and D2 PAM 0.
For OCCN1CCN(c2ncnc3nc[nH]c23)CC1 the results were CtBP-E1A blk 4, gsp antagonist 14%, D2 agonist -2.4, Six1-Eya2 inh 1, gsp agonist inconclusive and D2 PAM -3.
`O=C(Nc1ncccn1)C1c2ccccc2Oc2ccccc21` gave CtBP-E1A blk 2, gsp antagonist 12%, D2 agonist -2.4, Six1-Eya2 inh 0, gsp agonist 3% and D2 PAM 2.
`CC(C)Sc1snnc1-c1ccccc1` gave CtBP-E1A blk 27, gsp antagonist 1%, D2 agonist 3.2, Six1-Eya2 inh 6, gsp agonist 0% and D2 PAM -4.
Cc1noc(C)c1S(=O)(=O)N1CCC(C(=O)NCCN2CCC(C)CC2)CC1 was read as CtBP-E1A blk 3, gsp antagonist 9%, D2 agonist -1.0, Six1-Eya2 inh 2, gsp agonist -24% and D2 PAM 1.
For COc1cc2c(cc1OC)C1c3ccc(OC)c(OC)c3OCC1(O)C2 (stereo not drawn) the results were CtBP-E1A blk 7, gsp antagonist -3%, D2 agonist 2.4, Six1-Eya2 inh -1, gsp agonist -42%[inhibitor] and D2 PAM -1.
Cc1cccc(C)c1NC(=O)CN1C(=O)COc2ccccc21 was read as CtBP-E1A blk 8, gsp antagonist 6%, D2 agonist -3.4, Six1-Eya2 inh 4, gsp agonist -2%[15.4 µM] and D2 PAM -6.
Screening CCc1ccc(C(=O)CN2C(=O)NC(C)(CCc3ccccc3)C2=O)cc1 (stereo not drawn) returned CtBP-E1A blk 6, gsp antagonist -10%, D2 agonist 0.7, Six1-Eya2 inh -5, gsp agonist -2% and D2 PAM -11.
For COc1ccc(NC(=O)CCN2CCN(S(=O)(=O)c3ccc(OC)cc3)CC2)cc1 the results were CtBP-E1A blk -4, gsp antagonist 5%, D2 agonist -5.6, Six1-Eya2 inh 4, gsp agonist -1%[15.4 µM] and D2 PAM -6.

A stretch from further up, for reference:
Screening Cc1nn(-c2ccccn2)c2c1C(=O)CC(C)(C)C2Br (stereo not drawn) returned CtBP-E1A blk 1, gsp antagonist -7%, D2 agonist 3.2, Six1-Eya2 inh -1, gsp agonist inconclusive and D2 PAM 11.
Screening CCOC(=O)C1CCCN(c2cc(C)nc3cc(-c4ccc(Cl)cc4)nn23)C1 (stereo not drawn) returned CtBP-E1A blk -3, gsp antagonist -27%, D2 agonist 1.9, Six1-Eya2 inh -6, gsp agonist -6% and D2 PAM 13.
CCN(CC)c1ccc(S(=O)(=O)N2CCOCC2)cc1NC(=O)COC(=O)/C=C/c1ccc(C)o1 was read as CtBP-E1A blk 0, gsp antagonist -26%, D2 agonist -0.5, Six1-Eya2 inh -15, gsp agonist 0% and D2 PAM 12.

The list continues.
`Cc1ccccc1NC(=O)c1onc2c1CCCC2` gave CtBP-E1A blk 18, gsp antagonist 1%, D2 agonist -1.3, Six1-Eya2 inh 11, gsp agonist -47%[inhibitor] and D2 PAM -7.
For CC(C)(C)c1ccc(CSc2nnc(-c3ccccc3NC(=O)c3ccccc3)o2)cc1 the results were CtBP-E1A blk 11, gsp antagonist 5%, D2 agonist -1.7, Six1-Eya2 inh 6, gsp agonist 24% and D2 PAM -26.
`COCCOc1ccc(C(F)(F)F)cc1N` gave gsp antagonist 7%, D2 agonist -3.7, Six1-Eya2 inh 1, gsp agonist -92%[inhibitor] and D2 PAM -4.
For CCc1ccc([C@@H]2C[C@H]3[C@@H](CN2S(=O)(=O)c2ccc(C)cc2)C(=O)C[C@@H](c2ccccc2F)N3S(=O)(=O)c2ccc(C)cc2)cc1 the results were CtBP-E1A blk -1, D2 agonist -9.4, Six1-Eya2 inh -3, gsp agonist 1% and D2 PAM 1.
For S=c1[nH]nc(Cn2cnc3ccccc32)n1-c1ccccc1Cl the results were CtBP-E1A blk 2, gsp antagonist 6%, D2 agonist -2.2, Six1-Eya2 inh 2, gsp agonist 13% and D2 PAM -5.
`CN(CCOc1ccccc1)Cc1ccccc1` gave CtBP-E1A blk 4, D2 agonist 12, Six1-Eya2 inh 0 and D2 PAM -10.
`COc1ccc(NS(=O)(=O)c2ccc(/C=C/C(=O)O)cc2)cc1S(=O)(=O)N1CCOCC1` gave CtBP-E1A blk 12, gsp antagonist 14%, D2 agonist 1.2, Six1-Eya2 inh 4, gsp agonist 0%[15.4 µM] and D2 PAM -3.
`Cc1ccc(C(=O)NC(Cc2c[nH]c3ccccc23)C(=O)O)cc1` (stereo not drawn) gave CtBP-E1A blk 9, gsp antagonist 13%, D2 agonist 0.9, Six1-Eya2 inh 3, gsp agonist -3% and D2 PAM -6.
`O=C(CC1(O)CCCCC1)OC1CCCC1` gave CtBP-E1A blk 1, gsp antagonist 19%, D2 agonist 3.7, Six1-Eya2 inh 4, gsp agonist 17% and D2 PAM 11.
Screening O=[N+]([O-])c1cccc(-c2nnc(-c3ccccc3F)o2)c1 returned CtBP-E1A blk -2, gsp antagonist -11%, D2 agonist -3.6, Six1-Eya2 inh -7, gsp agonist inconclusive and D2 PAM 1.
CC(=O)N1CCN(Cc2nc(-c3cccc(Cl)c3)no2)CC1 was read as CtBP-E1A blk -17, gsp antagonist -7%, D2 agonist 3.8, Six1-Eya2 inh 3, gsp agonist -9% and D2 PAM 1.
`CCOC(=O)C1CCN(S(=O)(=O)c2cccc(-c3cn4cccnc4n3)c2)CC1` gave CtBP-E1A blk -22, gsp antagonist -19%, D2 agonist -0.1, Six1-Eya2 inh -26, gsp agonist 17% and D2 PAM -7.
C[C@H](CO)N1C[C@H](C)[C@H](CN(C)S(C)(=O)=O)OCc2cnnn2CCCC1=O was read as CtBP-E1A blk 6, D2 agonist -2.8, Six1-Eya2 inh -3 and gsp agonist -7%.
`COc1ccc(CC(=O)N[C@@H](CCSC)C(=O)N2CCC3(CC2)NCCc2[nH]cnc23)cc1` gave CtBP-E1A blk 3, gsp antagonist 13%, D2 agonist 1.9, Six1-Eya2 inh -2, gsp agonist 32% and D2 PAM 1.
For Cc1cc(C)n2nc(C(=O)OCC(=O)Nc3cc(Cl)ccc3C)nc2n1 the results were CtBP-E1A blk -25, gsp antagonist 9%, D2 agonist -2.0, Six1-Eya2 inh 2, gsp agonist 17% and D2 PAM -11.
O=[N+]([O-])c1ccc2nc(CN3CCCCC3)[nH]c2c1 was read as CtBP-E1A blk 1, gsp antagonist 7%, D2 agonist -1.5, Six1-Eya2 inh -18, gsp agonist 0% and D2 PAM -13.
For O=C(O)c1ccc(/C=C2\SC(=S)N(Nc3ccccc3)C2=O)cc1 the results were CtBP-E1A blk -17, gsp antagonist -20%, D2 agonist -14, Six1-Eya2 inh -28, gsp agonist -12%[15.4 µM] and D2 PAM -3.
`CCOC(=O)c1cc2c(=O)n3ccccc3nc2n(C)c1=NC(=O)c1c(-c2c(F)cccc2Cl)noc1C` gave CtBP-E1A blk 8, gsp antagonist inconclusive, D2 agonist -5.3, Six1-Eya2 inh -6, gsp agonist -13%[15.4 µM] and D2 PAM -3.
CCOc1ccc(OCC)c(NC(=O)Cn2c(C)nc3ccccc3c2=O)c1 was read as CtBP-E1A blk -1, gsp antagonist 0%, D2 agonist -4.3, Six1-Eya2 inh -11, gsp agonist 3%[15.4 µM] and D2 PAM 0.
Cc1ccc(C(=O)COC(=O)CNC(=O)c2ccccc2)s1 was read as gsp antagonist 3%, D2 agonist -2.2, Six1-Eya2 inh 7, gsp agonist 0% and D2 PAM -10.
`Cn1c(CN2CCCC2)nc2cc(NS(=O)(=O)c3ccc(Cl)cc3)ccc21` gave CtBP-E1A blk -2, gsp antagonist 4%, D2 agonist -2.9, Six1-Eya2 inh 2, gsp agonist inconclusive and D2 PAM -47.

Three compounds from above, sorted by number of heavy atoms, low to high.
`CN(CCOc1ccccc1)Cc1ccccc1` gave CtBP-E1A blk 4, D2 agonist 12, Six1-Eya2 inh 0 and D2 PAM -10.
`Cc1ccccc1NC(=O)c1onc2c1CCCC2` gave CtBP-E1A blk 18, gsp antagonist 1%, D2 agonist -1.3, Six1-Eya2 inh 11, gsp agonist -47%[inhibitor] and D2 PAM -7.
`CCOC(=O)C1CCN(S(=O)(=O)c2cccc(-c3cn4cccnc4n3)c2)CC1` gave CtBP-E1A blk -22, gsp antagonist -19%, D2 agonist -0.1, Six1-Eya2 inh -26, gsp agonist 17% and D2 PAM -7.
